Yeast UUG start: alters start codon recognition fidelity in yeast; S. cerevisiae UUG-firefly luciferase reporter, luminescence/redox ratio; activity score, % at 18.7 µM; 0.13% of 350,000 active; AID 602363;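 active = replicate mean at a twofold rise or more, about +100% in these data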;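 note: firefly luciferase made from a UUG start codon reports start codon fidelity; reporter light over untreated wells divided by growth signal over untreated wells; some hits fall short of that in this replicate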
HIV Env fusion: blocks HIV Env-driven cell-cell fusion; HeLa-JRFL Env/CEM21 cell fusion, luciferase; inhibition, % at 12.3 µM; 1.1% of 360,000 active; AID 651610;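 active = mean replicate inhibition score of at least 50 and every replicate individually at or above 50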;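 note: 0% = plate neutral controls and 100% = maraviroc near 300 nM; one replicate is shown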
Numbers without * were called inactive; [ ] = remark or other dose. A portion of the library (hit frequency here may not be typical).

For C[C@@H]1CN([C@H](C)CO)C(=O)c2cc(NC(=O)Nc3ccc4c(c3)OCO4)ccc2O[C@H]1CN(C)Cc1ccccc1 the results were Yeast UUG start -13.8 and HIV Env fusion -4.4[16.7 µM].
`CO[C@@H]1CN(C)C(=O)c2cc(NC(C)=O)ccc2OC[C@@H](C)N(C(=O)c2ccncc2)C[C@H]1C` gave Yeast UUG start -6.0 and HIV Env fusion -7.2[16.7 µM].
`CNC[C@H]1Oc2ccc(NC(=O)Nc3c(C)noc3C)cc2CC(=O)N([C@H](C)CO)C[C@@H]1C` gave Yeast UUG start -0.2 and HIV Env fusion 4.8[16.7 µM].
Screening CC(C)NC(=O)N[C@H]1CC[C@H](CCn2cc(-c3ccccc3)nn2)O[C@@H]1CO returned Yeast UUG start -3.6 and HIV Env fusion 41.8[16.7 µM].
Screening COc1ccc(NC(=O)N(C)C[C@@H]2Oc3ccc(NC(=O)CCN4CCOCC4)cc3C(=O)N([C@@H](C)CO)C[C@@H]2C)cc1 returned Yeast UUG start -2.5 and HIV Env fusion 2.9[16.7 µM].
For C[C@H](CO)N1C[C@H](C)[C@H](CN(C)Cc2ccc3c(c2)OCO3)Oc2ccc(NS(=O)(=O)c3cccs3)cc2CC1=O the results were Yeast UUG start 4.7 and HIV Env fusion 5.2[16.7 µM].
For C[C@@H]1CN([C@@H](C)CO)C(=O)c2cc(-c3cccc(F)c3)cnc2O[C@@H]1CN(C)Cc1cccnc1 the results were Yeast UUG start -4.8 and HIV Env fusion 3.2[16.7 µM].
COc1cccc(S(=O)(=O)N[C@@H]2CC[C@H](CCn3cc(-c4ccc(F)cc4)nn3)O[C@@H]2CO)c1 was read as Yeast UUG start 0.0 and HIV Env fusion 4.1[16.7 µM].
For C[C@H](CO)N1C[C@H](C)[C@@H](CN(C)C(=O)Nc2cccc3ccccc23)Oc2ccc(N(C)C)cc2CC1=O the results were Yeast UUG start 8.5 and HIV Env fusion 12.1[16.7 µM].
For Cc1noc(C)c1NC(=O)Nc1ccc2c(c1)C(=O)N([C@H](C)CO)C[C@@H](C)[C@H](CN(C)CC1CCCCC1)OCCCC[C@@H](C)O2 the results were Yeast UUG start 18.1 and HIV Env fusion -17.9[16.7 µM].
Cc1noc(C)c1NC(=O)NCC[C@@H]1CC[C@@H](NC(=O)c2ccccc2)[C@@H](CO)O1 was read as Yeast UUG start 5.2 and HIV Env fusion -4.7[16.7 µM].
For COc1ccccc1-c1cn(CC[C@@H]2CC[C@@H](NC(=O)C3CCOCC3)[C@H](CO)O2)nn1 the results were Yeast UUG start 17.9 and HIV Env fusion -1.7[16.7 µM].
Screening COc1ccccc1CNC(=O)C[C@@H]1C[C@@H]2c3cc(NC(=O)C4CCC4)ccc3O[C@@H]2[C@@H](CO)O1 returned Yeast UUG start 43.0 and HIV Env fusion 10.6[16.7 µM].
`Cc1ccccc1-c1ccc2c(c1)O[C@@H](CN(C)CC1CC1)[C@@H](C)CN([C@H](C)CO)S2(=O)=O` gave Yeast UUG start 21.7 and HIV Env fusion 2.9[16.7 µM].
For C[C@@H]1CCCCO[C@@H](CN(C)C(=O)CCCN(C)C)[C@@H](C)CN([C@@H](C)CO)C(=O)c2cc(NS(=O)(=O)c3ccc(F)cc3)ccc2O1 the results were Yeast UUG start 51.9 and HIV Env fusion 7.0[16.7 µM].
`COc1ccc(S(=O)(=O)Nc2ccc3c(c2)CC(=O)N([C@H](C)CO)C[C@H](C)[C@H](CN(C)C(=O)Nc2ccc(C(F)(F)F)cc2)O3)cc1` gave Yeast UUG start -2.1 and HIV Env fusion 6.0[16.7 µM].
C[C@@H]1CN([C@H](C)CO)C(=O)c2cc(/C=C/c3ccccc3)cnc2O[C@H]1CN(C)S(=O)(=O)c1cn(C)cn1 was read as Yeast UUG start -9.6 and HIV Env fusion 36.4[16.7 µM].
`COC(=O)c1ccc(CNC(=O)c2ccccc2C(=O)NCC2(CBr)OCCO2)cc1` gave Yeast UUG start 5.4 and HIV Env fusion -3.3.
For CNC(=O)C[C@H]1CC[C@@H]2[C@H](COc3ccc(NC(=O)C4CCCCC4)cc3C(=O)N2C)O1 the results were Yeast UUG start 16.6 and HIV Env fusion -14.6[16.7 µM].
Screening COCC(=O)N(C)C[C@@H]1Oc2ncc(-c3ccccc3OC)cc2C(=O)N([C@@H](C)CO)C[C@@H]1C returned Yeast UUG start 9.6 and HIV Env fusion -25.7[16.7 µM].
C/C=C/c1cnc2c(c1)C(=O)N([C@@H](C)CO)C[C@@H](C)[C@H](CN(C)C(=O)Cc1ccccn1)O2 was read as Yeast UUG start -3.8 and HIV Env fusion -5.8[16.7 µM].
CCC(=O)N(C)C[C@H]1Oc2cc(C#Cc3cccnc3)ccc2S(=O)(=O)N([C@@H](C)CO)C[C@H]1C was read as Yeast UUG start -7.0 and HIV Env fusion -0.6[16.7 µM].
For Cc1ccc(S(=O)(=O)N(C)C[C@H]2Oc3ccc(NS(=O)(=O)c4cccs4)cc3CC(=O)N([C@H](C)CO)C[C@H]2C)cc1 the results were Yeast UUG start 12.6 and HIV Env fusion -7.5[16.7 µM].
COc1ccccc1-c1cn(CC[C@@H]2CC[C@H](NC(=O)Cc3ccccn3)[C@H](CO)O2)nn1 was read as Yeast UUG start 1.5 and HIV Env fusion -12.7[16.7 µM].
For C[C@@H]1CN([C@@H](C)CO)C(=O)c2cc(NC(=O)Nc3ccc(F)cc3)ccc2O[C@@H]1CN(C)CC1CCCCC1 the results were Yeast UUG start 40.0 and HIV Env fusion -1.0[16.7 µM].
`CC(=O)N(C)C[C@@H]1Oc2cc(C#Cc3ccccc3F)ccc2S(=O)(=O)N([C@@H](C)CO)C[C@@H]1C` gave Yeast UUG start -3.7 and HIV Env fusion 25.2[16.7 µM].
CCCC#Cc1cnc2c(c1)C(=O)N([C@H](C)CO)C[C@H](C)[C@H](CN(C)C(=O)Nc1cccc(F)c1)O2 was read as Yeast UUG start 8.6 and HIV Env fusion 3.3[16.7 µM].
`CC(=O)Nc1ccc2c(c1)C(=O)N(C)[C@@H]1CC[C@@H](CC(=O)NCC3CC3)O[C@H]1CO2` gave Yeast UUG start -9.6 and HIV Env fusion -0.2[16.7 µM].
Screening Cc1noc(C)c1S(=O)(=O)N(C)C[C@@H]1OCCCC[C@@H](C)Oc2ccc(NC(=O)C3CCCCC3)cc2C(=O)N([C@H](C)CO)C[C@@H]1C returned Yeast UUG start -0.5 and HIV Env fusion 23.2[16.7 µM].
CO[C@@H]1CN(C)C(=O)c2cc(NS(=O)(=O)c3ccc(Cl)cc3)ccc2OC[C@H](C)N(C)C[C@H]1C was read as Yeast UUG start 4.1 and HIV Env fusion -8.0[16.7 µM].
`N#C[C@H]1[C@H](c2ccc(-c3cccc(F)c3)cc2)[C@@H](CO)N1C(=O)CN1CCOCC1` gave Yeast UUG start 1.9 and HIV Env fusion 8.5[16.7 µM].
For CC(C)C#Cc1ccc2c(c1)O[C@@H](CN(C)C(=O)C1CC1)[C@@H](C)CN([C@H](C)CO)S2(=O)=O the results were Yeast UUG start 7.3 and HIV Env fusion 5.2[16.7 µM].
`C[C@@H]1CN([C@@H](C)CO)C(=O)c2cccc(NC(=O)NC3CCCCC3)c2O[C@H]1CN(C)Cc1ccc(C(F)(F)F)cc1` gave Yeast UUG start 4.0 and HIV Env fusion 11.7[16.7 µM].
`C[C@@H](NC(=O)C[C@H]1CC[C@H](NC(=O)C2CCC2)[C@H](CO)O1)c1ccccc1` gave Yeast UUG start -2.5 and HIV Env fusion 1.0[16.7 µM].
Screening CCCN(C)C[C@H]1OCCCC[C@@H](C)Oc2ccc(NS(C)(=O)=O)cc2C(=O)N([C@@H](C)CO)C[C@H]1C returned Yeast UUG start 1.1 and HIV Env fusion 4.7[16.7 µM].
For COc1ccc(NC(=O)Nc2ccc3c(c2)C(=O)N([C@H](C)CO)C[C@H](C)[C@@H](CN(C)S(C)(=O)=O)OCCCC[C@H](C)O3)cc1 the results were Yeast UUG start 16.6 and HIV Env fusion 12.4[16.7 µM].
C[C@@H]1CCCCO[C@H](CN(C)C(=O)Nc2ccc(F)cc2)[C@@H](C)CN([C@H](C)CO)C(=O)c2cc(NS(=O)(=O)c3cccs3)ccc2O1 was read as Yeast UUG start -7.8 and HIV Env fusion -58.0[16.7 µM].
`C[C@@H]1CN([C@@H](C)CO)S(=O)(=O)c2ccc(-c3cccnc3)cc2O[C@H]1CN(C)C` gave Yeast UUG start -21.5 and HIV Env fusion 7.7[16.7 µM].
Screening C[C@@H]1CN([C@H](C)CO)C(=O)Cc2cc(NC(=O)NC3CCCCC3)ccc2O[C@@H]1CN(C)C(=O)Nc1ccccc1 returned Yeast UUG start -6.5 and HIV Env fusion 10.5[16.7 µM].
Screening N#C[C@@H]1N[C@H](CO)[C@H]1c1ccc(-c2ccccc2F)cc1 returned Yeast UUG start -2.1 and HIV Env fusion 20.3[16.7 µM].
Screening C[C@@H]1CN([C@@H](C)CO)C(=O)c2cc(NS(=O)(=O)c3cccs3)ccc2O[C@@H](C)CCCCO[C@H]1CN(C)C(=O)c1ccccc1 returned Yeast UUG start 4.9 and HIV Env fusion 14.0[16.7 µM].
Screening Cc1noc(C)c1NC(=O)N(C)C[C@H]1Oc2ccc(NC(=O)C3CC3)cc2C(=O)N([C@H](C)CO)C[C@H]1C returned Yeast UUG start -21.1 and HIV Env fusion 7.2[16.7 µM].
CCCNC(=O)Nc1ccc2c(c1)C(=O)N(C)[C@H]1CC[C@@H](CC(=O)NC3CCC3)O[C@H]1CO2 was read as Yeast UUG start -16.6 and HIV Env fusion 0.9[16.7 µM].
Screening C[C@H](CO)N1C[C@H](C)[C@H](CN(C)Cc2cccnc2)OCc2cn(nn2)CCCC1=O returned Yeast UUG start -3.6 and HIV Env fusion -5.8[16.7 µM].
COCCNC(=O)C[C@H]1C[C@H]2c3cc(NC(=O)c4cccnc4)ccc3O[C@H]2[C@@H](CO)O1 was read as Yeast UUG start -7.2 and HIV Env fusion -3.8[16.7 µM].
C[C@@H]1CCCCO[C@H](CN(C)S(=O)(=O)c2ccccc2)[C@H](C)CN([C@@H](C)CO)C(=O)c2cc(NC(=O)Cc3ccccc3)ccc2O1 was read as Yeast UUG start -0.9 and HIV Env fusion -33.9[16.7 µM].
For C[C@H](CO)N1C[C@H](C)[C@@H](CN(C)C(=O)NC2CCCCC2)Oc2c(NC(=O)NC3CCCCC3)cccc2C1=O the results were Yeast UUG start 4.0 and HIV Env fusion 5.4[16.7 µM].
`Cc1ccc(S(=O)(=O)N(C)C[C@H]2Oc3ccc(NC(=O)Cn4cnnn4)cc3CC(=O)N([C@H](C)CO)C[C@H]2C)cc1` gave Yeast UUG start 2.8 and HIV Env fusion 38.9[16.7 µM].
`COCC(=O)N(C)C[C@H]1Oc2ncc(C#Cc3ccncc3)cc2C(=O)N([C@@H](C)CO)C[C@@H]1C` gave Yeast UUG start -10.4 and HIV Env fusion -13.5[16.7 µM].
O=C(Nc1ccccc1)NC1(c2cn(CC(=O)N3CCN(c4ccccc4)CC3)nn2)CCCCC1 was read as Yeast UUG start 124.0* and HIV Env fusion 2.0[16.7 µM].
`CNC[C@@H]1OCCCC[C@@H](C)Oc2ccc(NC(=O)CCC(F)(F)F)cc2C(=O)N([C@H](C)CO)C[C@@H]1C` gave Yeast UUG start -1.4 and HIV Env fusion 23.6[16.7 µM].
`COc1cccc(S(=O)(=O)N[C@@H]2C=C[C@H](CC(=O)NCc3ccncc3)O[C@H]2CO)c1` gave Yeast UUG start -17.8 and HIV Env fusion -1.9[16.7 µM].
`CC(=O)N(C)C[C@H]1Oc2ncc(-c3cccc(C#N)c3)cc2C(=O)N([C@H](C)CO)C[C@@H]1C` gave Yeast UUG start -5.5 and HIV Env fusion 7.6[16.7 µM].
For CN(C)CC(=O)Nc1ccc2c(c1)[C@H]1C[C@H](CC(=O)NCc3cccc(F)c3)O[C@H](CO)[C@H]1O2 the results were Yeast UUG start 3.1 and HIV Env fusion 3.5[16.7 µM].
`C[C@@H]1CN([C@H](C)CO)C(=O)c2cc(NS(C)(=O)=O)ccc2O[C@H]1CN(C)C(=O)Nc1ccc(C(F)(F)F)cc1` gave Yeast UUG start 2.7 and HIV Env fusion 3.0[16.7 µM].
C/C=C/c1ccc2c(c1)O[C@H](CN(C)Cc1ccccc1F)[C@H](C)CN([C@@H](C)CO)S2(=O)=O was read as Yeast UUG start -2.3 and HIV Env fusion 27.4[16.7 µM].
For C[C@@H]1CN([C@@H](C)CO)C(=O)c2cccc(NS(=O)(=O)c3ccccc3)c2O[C@@H]1CN(C)C(=O)Nc1ccccc1 the results were Yeast UUG start -4.3 and HIV Env fusion -53.7[16.7 µM].
Screening CN(C)CC(=O)N[C@H]1CC[C@@H](CCNC(=O)C2CCCCC2)O[C@@H]1CO returned Yeast UUG start 6.2 and HIV Env fusion 6.1[16.7 µM].
For C[C@H]1CN([C@@H](C)CO)C(=O)c2cccc(NC(=O)c3ccc(-c4nccs4)cc3)c2O[C@@H]1CN(C)C(=O)Nc1ccccc1 the results were Yeast UUG start -0.4 and HIV Env fusion 1.3[16.7 µM].
`O=C(Nc1ccccc1)N[C@H]1CC[C@@H](CCNS(=O)(=O)c2cccc(F)c2)O[C@H]1CO` gave Yeast UUG start -8.0 and HIV Env fusion -1.2[16.7 µM].

Structures above that contain two or more sulfur atoms:
For C[C@H](CO)N1C[C@H](C)[C@H](CN(C)Cc2ccc3c(c2)OCO3)Oc2ccc(NS(=O)(=O)c3cccs3)cc2CC1=O the results were Yeast UUG start 4.7 and HIV Env fusion 5.2[16.7 µM].
For Cc1ccc(S(=O)(=O)N(C)C[C@H]2Oc3ccc(NS(=O)(=O)c4cccs4)cc3CC(=O)N([C@H](C)CO)C[C@H]2C)cc1 the results were Yeast UUG start 12.6 and HIV Env fusion -7.5[16.7 µM].
C[C@@H]1CCCCO[C@H](CN(C)C(=O)Nc2ccc(F)cc2)[C@@H](C)CN([C@H](C)CO)C(=O)c2cc(NS(=O)(=O)c3cccs3)ccc2O1 was read as Yeast UUG start -7.8 and HIV Env fusion -58.0[16.7 µM].
Screening C[C@@H]1CN([C@@H](C)CO)C(=O)c2cc(NS(=O)(=O)c3cccs3)ccc2O[C@@H](C)CCCCO[C@H]1CN(C)C(=O)c1ccccc1 returned Yeast UUG start 4.9 and HIV Env fusion 14.0[16.7 µM].

From PubChem BioAssay
